gsp ag: gsp mutant agonism; Potency, µM (titrated, usually from 76.9 µM), without a hit: at the highest dose activation (cAMP increase), actives largely listed as activators; 0.13% of 340,000 active; gsp mutant cells, cAMP HTRF, 30 min; control for the full effect not named in the record; AID 624287; active = well fitted activation curve with a large enough effect; inconclusive = small, poorly fitted or top-dose-only effect, or another doubt; inactive = no such curve, though single readings can be large or run the other way; cell line not stated here;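 further: phosphodiesterase inhibitor Ro 20-1724 added with compounds to block cAMP breakdown; potency means the concentration at half of the fitted maximal effect; nearly all actives have a fitted effect of over 60% in size; about a fifth of the inactives were tested at one dose only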
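Cells in DMEM/10% FBS with G418 were pretreated with compounds in DMSO plus […] (300 uM stock) for 30 min at 37C. cAMP was measured by HTRF (cAMP-d2 plus anti-cAMP antibody-K) after 30 min at room temperature.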
D2 agonist: activates the human D2 dopamine receptor | P14416 | DiscoveRx PathHunter D2 beta-arrestin, luminescence, 90 min; 100% = 57 uM dopamine signal | activation, % (test concentration not listed) | 0.084% of 360,000 active; in the data active = activation above about 40%; inconclusive = about 15% to 40%; inactive = below about 15%; further: compound concentration not given in the record; the text of the record calls up to 30% inactive
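DiscoveRx PathHunter D2 beta-arrestin cells (2,100/well) attached overnight, then compound-stimulated 90 min at 37 C in HBSS/10 mM HEPES/0.1% Tween-20 buffer; beta-galactosidase complementation read by luminescence after 1 h at ambient temperature. Dopamine 57 uM final (EC100) as control.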
D2 PAM: human D2 receptor positive allosteric modulation; AID 624464; potentiation, % (no concentration beside the values); DiscoveRx D2 beta-arrestin cells, luminescence, 90 min; 100% = 57 uM dopamine signal; 0.23% of 360,000 active; P14416; active = potentiation of 50% or more; inconclusive = 30% to 50%; inactive = 30% or less;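 further: compound concentration not given in the record; tested on top of an EC20 dose of dopamine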
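PathHunter beta-arrestin assay in DiscoveRx D2 cells. Compounds were added with an EC20 of dopamine (50 nM final) for 90 min at 37 deg C. Luminescence was read 1 h after detection reagent, with 57 uM dopamine as the EC100 control.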
CtBP-E1A blk: blocks the CtBP interaction with E1A | activity change, % (no concentration beside the values) | 0.49% of 340,000 active | AlphaScreen GST-E1A/His-CtBP binding, 1536-well; active compounds read low; control for the full effect not named in the record; in the data active means activity change below about -65%; inconclusive means about -30% to -65%; inactive means above about -30%; further: on the % scale 0 is the no-effect control and ±100 the full control effect
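Protein mix (5X: 125 nM each GST-E1A, His-CtBP) was incubated with pinned compound 2 h at 37 deg C in dark, in 50 mM Tris pH 8.0 buffer with 300 mM NaCl. Glutathione donor and nickel acceptor beads followed; AlphaScreen signal read after 1 h.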
gsp antag: gsp mutant antagonism | gsp-mutant cells, cAMP HTRF, 30 min; control for the full effect not named in the record | Potency, µM (series often up to 76.9 µM), without a hit: top-dose activity change, negative = inhibition, most hits filed as inhibitors | 0.4% of 340,000 active; active = falling curve of any shape with a large fitted effect; inconclusive = falling curve, mostly with a smaller effect; inactive = flat or rising curve; cell line not stated here;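 further: intracellular cAMP measured with PDE inhibitor Ro 20-1724 present during compound exposure; potency means the concentration at half of the fitted maximal effect; on the % scale 0 is the no-effect control and ±100 the full control effect; nearly all actives have a fitted effect of over 65% in size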
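Cells, 2000/well, grown 16–24 h in DMEM 10% FBS with 0.5 mg/ml G418, then compounds plus […] (300 uM addition stock), 30 min at 37C. cAMP read by HTRF (cAMP-d2 and anti-cAMP antibody-K in lysis buffer) after 30 min RT.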
Six1-Eya2 blk: Six1/Eya2 interaction inhibition. Q15475+O00167. 0.56% of 360,000 active. AlphaScreen GST-Six1/His-Eya2 binding, biochemical; active compounds read low; control for the full effect not named in the record. activity change, % (no concentration beside the values); in the data active = activity change below about -65%; inconclusive = about -30% to -65%; inactive = above about -30%; further: on the % scale 0 is the no-effect control and ±100 the full control effect
Target sequence (O00167 whole entry, looked up): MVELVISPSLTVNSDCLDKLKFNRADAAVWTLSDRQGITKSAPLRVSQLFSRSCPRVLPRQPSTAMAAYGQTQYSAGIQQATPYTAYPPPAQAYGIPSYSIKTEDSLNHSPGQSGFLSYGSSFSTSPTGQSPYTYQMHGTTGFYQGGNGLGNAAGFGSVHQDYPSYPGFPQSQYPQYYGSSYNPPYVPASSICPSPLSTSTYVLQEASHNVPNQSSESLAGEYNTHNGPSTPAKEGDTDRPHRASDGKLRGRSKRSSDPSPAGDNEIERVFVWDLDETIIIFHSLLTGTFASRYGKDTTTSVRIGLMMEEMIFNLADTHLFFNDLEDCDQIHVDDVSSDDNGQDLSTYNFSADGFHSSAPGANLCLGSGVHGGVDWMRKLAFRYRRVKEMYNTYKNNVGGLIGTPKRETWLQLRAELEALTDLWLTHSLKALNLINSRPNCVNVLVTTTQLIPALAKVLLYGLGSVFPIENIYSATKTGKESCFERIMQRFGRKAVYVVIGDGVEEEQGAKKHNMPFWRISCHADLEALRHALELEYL
Target sequence (Q15475 whole entry, looked up): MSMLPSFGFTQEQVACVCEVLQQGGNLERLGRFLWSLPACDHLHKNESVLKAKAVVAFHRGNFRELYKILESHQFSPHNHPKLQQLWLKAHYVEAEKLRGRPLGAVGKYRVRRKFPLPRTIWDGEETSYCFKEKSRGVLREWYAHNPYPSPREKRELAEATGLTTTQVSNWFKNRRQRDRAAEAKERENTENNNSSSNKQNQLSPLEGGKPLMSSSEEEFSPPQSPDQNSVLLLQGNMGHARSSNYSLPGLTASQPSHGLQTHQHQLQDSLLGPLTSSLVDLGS
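Six1/Eya2 binding was read as AlphaScreen signal after compounds were pinned into GST-Six1 plus His-tagged Eya2 (5X stock 250/500 nM) in pH 8.0 Tris/NaCl/TCEP buffer, beads added, then incubated 1 h, 37 C, dark.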
* marks the source's active call; other numbers are inactive results; ? = inconclusive; · = no result given; [ ] = dose if it differs, or a comment.

SMILES	gsp ag	D2 agonist	D2 PAM	CtBP-E1A blk	gsp antag	Six1-Eya2 blk
CCO[C@@H]1OC(C(=O)N2CCN(Cc3ccc4c(c3)OCO4)CC2)=C[C@H](c2ccc(C(F)(F)F)cc2)[C@H]1CCCO	·	-1.1	-14.7	-2.9	?	-7.1
Cc1cc([N+](=O)[O-])nn1CC(=O)N/N=C/c1ccc(O)cc1O	?	-5.0	-2.1	?	-8.1%	-85.2*
CC1CCN(C(=O)CN(c2ccc(Oc3ccccc3)cc2)S(C)(=O)=O)CC1	8.8%	4.4	-17.5	-2.1	-26.0%	-0.7
COc1ccc(-n2c(SCC(=O)Nc3ccccc3)nnc2-c2ccoc2C)cc1	13.5%	-0.3	-3.1	-12.3	-10.1%	-7.5
CC(NC(=O)c1cc(S(=O)(=O)N2CCOCC2)ccc1F)c1ccc(-n2ccnc2)cc1 (stereo not drawn)	44.3%	1.2	-5.5	-2.4	-1.0%	1.0
CCCCn1c(N)c(N(CCOC)C(=O)COc2ccc(OCC)cc2)c(=O)[nH]c1=O	5.1%	-2.1	-2.8	5.0	8.1%	-4.4
CCSc1nc2sc3c(c2c(=O)n1-c1ccccc1)CCN(C(C)C)C3	-0.9%	-1.8	-11.5	-5.5	-16.5%	-2.2
CC(C)CN1CCN=C1Nc1ccccc1	?	-5.0	-7.7	3.2	10.6%	0.3
O=C1CCCc2nc(N3CCN(c4ccccc4)CC3)ncc21	5.2%	0.5	-1.1	-1.9	-9.7%	10.1
CCOC(CNC(=O)C1CCN(S(=O)(=O)c2ccc3nc4c(c(C(=O)O)c3c2)CC(C)CC4)CC1)OCC (stereo not drawn)	27.3%	-0.4	1.0	-11.0	-16.4%	-16.3
COC(=O)C1(C)COP(=O)(Nc2ccc(OC)cc2)OC1 (stereo not drawn)	·	4.3	-0.4	4.2	·	0.1
CC(Oc1ccccc1Cl)C(=O)N(Cc1ccco1)C1CCS(=O)(=O)C1 (stereo not drawn)	-4.5%	-2.5	6.5	1.2	-5.3%	-1.1
CN1CCN(c2nc(-c3cccs3)nc3ccccc23)CC1	20.5%	-6.0	-21.1	·	-15.1%	-18.2
COc1ccc(C2NCCc3c2[nH]c2ccccc32)cc1CN1CCc2cc(OC)c(OC)cc2C1C (stereo not drawn)	0.1%	-9.0	-27.9	-12.9	-15.3%	-19.4
Nc1cc(=O)[nH]c(SCc2cccc(Cl)c2)n1	28.1%	-0.1	-4.8	12.3	3.2%	4.1
CCOC(=O)C(Cc1ccccc1)NC(=O)CCc1nnc2ccc(N3CCCC3)nn12 (stereo not drawn)	?	-0.4	1.8	4.1	-5.6%	3.0
CCC(O)(CC)C(=O)N(Nc1ccc(C)cc1)c1ccc(C)cc1	9.9%	-4.3	-2.5	-1.7	0.7%	-3.2
Cc1ccc(Cn2c(C3CCCN3c3nc(C)cs3)nc3cc(C(=O)NCCCO)ccc32)cc1 (stereo not drawn)	·	-2.9	-6.7	0.0	-15.3%	-3.9
O=C(NCC(c1ccco1)N1CCN(c2ccc(F)cc2)CC1)C1CCCCC1 (stereo not drawn)	11.6%	-2.1	-11.0	13.4	-10.3%	1.3
O=C(NCCc1nnc2ccc(NCc3ccc(F)cc3)nn12)c1ccccc1	34.0%	-2.1	-4.2	1.0	0.9%	5.2
COc1cccc(N2C(=O)CC(Nc3ccc(N4CCOCC4)cc3)C2=O)c1 (stereo not drawn)	-4.5%	3.1	11.8	7.0	-32.2%	-13.8
COc1ccc(-c2cn[nH]c2-c2ccc(OCc3ccc([N+](=O)[O-])cc3)cc2O)cc1	-27.9%	11.9	52.3*	?	-16.7%	-24.4
CCOC(=O)c1ccc(NC(=S)NNC(=O)c2cc(-c3cccnc3)nc3ccccc23)cc1	9.8%	-5.2	-0.5	-16.2	-32.5%	-14.1
COc1cc(NC(=O)CN(C)S(=O)(=O)c2cccs2)cc(OC)c1	-13.0%	-3.0	-5.1	-3.0	-13.7%	2.1
O=C(Cc1cccc2ccccc12)NCC(=O)N1CCN(CC(=O)Nc2ccc(F)cc2)CC1	-6.1%	-3.2	-13.6	2.4	·	5.2
Cc1cc(N2CC(C)OC(C)C2)nc(C(C)C)n1 (stereo not drawn)	8.8%[15.4 µM]	1.5	5.3	-0.7	9.2%	4.6
Cc1ccc(C)c(S(=O)(=O)N2CCCC2CNC(=O)c2ccc([N+](=O)[O-])cc2)c1 (stereo not drawn)	5.5%[15.4 µM]	-2.5	1.6	-12.5	-18.9%	4.4
O=[N+]([O-])c1ccc(COn2nnc3ccccc32)cc1	-0.5%	-0.6	-4.3	4.2	-3.3%	-2.5
C=C1CCN(c2ccc(C(=O)NCCC)cc2[N+](=O)[O-])CC1	·	-1.9	-10.5	-8.4	-15.0%	-11.6
COc1ccc(Br)cc1CNCC1CCCO1 (stereo not drawn)	-12.3%	5.7	-1.3	7.4	0.6%	11.3
NNc1nc(-c2ccccc2)c2cc(Cl)ccc2n1	-14.0%[15.4 µM]	-1.3	-20.4	-13.8	-0.5%	-25.4
COc1ccc(CCNC(=S)NC2CCN(Cc3ccccc3)CC2)cc1OC	-3.4%	-0.9	-12.6	-0.4	10.2%	13.0
COC(=O)c1c(NC(C)=O)sc(C(=O)Nc2ccccc2OC)c1C	-19.8%[15.4 µM]	-4.6	-4.1	-16.7	2.3%	-1.6
CCc1ccc(NC(=S)Nc2ccc3cn[nH]c3c2)cc1	12.2%[15.4 µM]	-0.5	-1.6	-4.0	8.2%	-13.2
CC1CCN(C(C)C(=O)Nc2ccc(S(=O)(=O)N3CCCC3)cc2)CC1 (stereo not drawn)	3.9%	-1.6	-3.7	-16.2	9.2%	1.2
COC(=O)c1sccc1NC(=S)N1C(C)CCCC1C (stereo not drawn)	11.7%	0.1	4.5	·	8.9%	5.5

Entries listed so far printed as active in D2 PAM:
SMILES	gsp ag	D2 agonist	D2 PAM	CtBP-E1A blk	gsp antag	Six1-Eya2 blk
COc1ccc(-c2cn[nH]c2-c2ccc(OCc3ccc([N+](=O)[O-])cc3)cc2O)cc1	-27.9%	11.9	52.3*	?	-16.7%	-24.4

(continued)
SMILES	gsp ag	D2 agonist	D2 PAM	CtBP-E1A blk	gsp antag	Six1-Eya2 blk
Cc1ccc(CCNC(=O)c2cccc(NC3=NC4CS(=O)(=O)CC4S3)c2)cc1 (stereo not drawn)	-4.0%	-4.1	-6.4	11.4	7.5%	13.3
O=[N+]([O-])c1cccc(CNC2CCCCCC2)c1	0.2%[15.4 µM]	-3.3	-26.7	0.0	-1.4%	1.5
COc1ccc(NC(=O)CC2C(=O)Nc3ccccc3N2CC(=O)N2CCCC2)cc1 (stereo not drawn)	?	12.0	-3.9	9.3	-2.2%	1.2
Cc1cc(C[n+]2ccsc2N)c2ncccc2c1	18.9%	-0.3	-12.5	·	6.0%	8.9
COc1cccc(/C=N/N(C)C2=NS(=O)(=O)c3ccccc32)c1O	?	-4.4	4.0	-14.9	-6.3%	-20.7
CC(C)CC(NC(=O)C1CCCCC1)C(=O)NC(C)c1ccccc1 (stereo not drawn)	17.0%[15.4 µM]	-1.7	-2.7	-12.5	1.1%	-15.9
COc1cccc(-n2cnnc2SC(C)C(=O)NC2CCCC2)c1 (stereo not drawn)	-23.3%	-0.9	-12.1	1.3	0.7%	0.1
Cc1cccc2sc(NC(=O)c3ccc(NS(=O)(=O)c4cccs4)cc3)nc12	5.8%	-1.5	-6.4	-10.7	?	-3.2
CCc1cc2ccccc2nc1SCC(=O)Nc1cc(C)on1	23.8%	-0.5	2.3	0.0	12.9%	-2.1
CCNC(=O)C1(C)CCN1CCS(=O)(=O)c1ccc(C)cc1 (stereo not drawn)	·	-2.3	-7.5	0.5	·	3.2
Cc1[nH]n(-c2ccc([N+](=O)[O-])cc2)c(=O)c1C=NCCN1CCN(C(=O)c2ccc(F)cc2)CC1	-2.6%	-1.0	12.0	10.9	1.2%	3.8
COc1ccc(/C=N/NC(=O)c2cnccn2)c(OC)c1OC	-2.3%	-4.0	-23.1	·	6.2%	1.0

A section taken from the entries so far, as a working copy:
SMILES	gsp ag	D2 agonist	D2 PAM	CtBP-E1A blk	gsp antag	Six1-Eya2 blk
Cc1ccc(CCNC(=O)c2cccc(NC3=NC4CS(=O)(=O)CC4S3)c2)cc1 (stereo not drawn)	-4.0%	-4.1	-6.4	11.4	7.5%	13.3
O=[N+]([O-])c1cccc(CNC2CCCCCC2)c1	0.2%[15.4 µM]	-3.3	-26.7	0.0	-1.4%	1.5
COc1ccc(NC(=O)CC2C(=O)Nc3ccccc3N2CC(=O)N2CCCC2)cc1 (stereo not drawn)	?	12.0	-3.9	9.3	-2.2%	1.2

Filtered by structure, those above with a furan ring, fused or not.
SMILES	gsp ag	D2 agonist	D2 PAM	CtBP-E1A blk	gsp antag	Six1-Eya2 blk
COc1ccc(-n2c(SCC(=O)Nc3ccccc3)nnc2-c2ccoc2C)cc1	13.5%	-0.3	-3.1	-12.3	-10.1%	-7.5
CC(Oc1ccccc1Cl)C(=O)N(Cc1ccco1)C1CCS(=O)(=O)C1 (stereo not drawn)	-4.5%	-2.5	6.5	1.2	-5.3%	-1.1
O=C(NCC(c1ccco1)N1CCN(c2ccc(F)cc2)CC1)C1CCCCC1 (stereo not drawn)	11.6%	-2.1	-11.0	13.4	-10.3%	1.3

(continued)
SMILES	gsp ag	D2 agonist	D2 PAM	CtBP-E1A blk	gsp antag	Six1-Eya2 blk
CN(C)CCn1c2c(c(SCC(=O)Nc3ccccc3C(F)(F)F)nc1=O)CCCC2	1.8%[15.4 µM]	-7.7	-7.6	10.5	10.9%	-0.5
COc1ccccc1OCc1ccc(C(=O)N(C)C)o1	?	-3.8	-10.4	0.0	21.3%	23.9
COc1cccc(C(=O)C2CCCN(Cc3cccc(-n4cccn4)c3)C2)c1 (stereo not drawn)	-5.7%[15.4 µM]	-2.9	-10.2	-6.5	-9.2%	2.5
CCCCCCSC1=C(C#N)C(c2ccccc2)CC(=O)N1 (stereo not drawn)	7.2%	0.7	1.0	9.6	3.6%	11.2
CCc1ccccc1S(=O)(=O)Cc1ccc(C(=O)NCCc2ccccc2)o1	-5.0%	-1.3	-4.6	4.7	-23.7%	-0.4
COc1ccc(-n2nc(C(=O)NCC(=O)N3CCN(c4ccccc4OC)CC3)c3ccccc3c2=O)c(OC)c1	0.4%	1.8	-6.1	-8.6	-21.2%	-8.5
Cc1cc(C(=O)NCCCN2CCN(C3CCCCC3)CC2)n(-c2ccccc2)n1	-18.3%	-3.4	-7.1	-2.3	8.0%	7.0
CC(=O)Nc1cccc(Oc2ncnc3scc(-c4ccc(C)cc4)c23)c1	-6.8%	5.4	7.3	-6.8	-29.4%	-0.2

Assay outcomes (PubChem)
